Screening data as filed in PubChem BioAssay.
CSC inhib – cancer stem cell viability inhibitors, primary screen, luminescence; cancer stem cell-like cells viability; inhibition, % at 7.5 µM; 300,000 tested, 1.1% active;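 active = mean at 75% or more and at least half the replicates too; inconclusive = mean and replicates disagree; tested in HMLE shEcad cells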;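 note: 0% = median of negative and 100% = median of positive control wells; the first replicate is given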
eIF4H FP inh – human eIF4H binding inhibitors, primary screen, translation initiation inhibitor project, biochemical, uHTS, fluorescence polarization; Eukaryotic translation initiation factor 4H (Homo sapiens), Q15056; eIF4H fluorescence polarization binding assay; inhibition, % at 35 µM; 290,000 tested, 0.94% active; AID 2012, 2009;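 active = 50% or more with normal probe brightness, or confirmed in later tests; inconclusive = above 50% with abnormal brightness, or retests that disagree; inactive = below 50% or failed in later tests; about a fifth of its hits are not listed in these tables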;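 note: calls also rest on retests at 20 µM and on dose response follow-up; 0% = protein and probe with vehicle and 100% = probe without protein; strong numbers were not always called active; many hits fall short of the cut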
Env fusion inh – inhibitors of HIV-1 Env-driven cell-cell fusion, primary screen, HeLa-JRFL effector, CEM21 target cells, luciferase; 360,000 tested, 1.1% active; inhibition, % at 12.3 µM; AID 651610, 2012;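 active = mean replicate inhibition score of at least 50 and every replicate individually at or above 50; inconclusive = only one of the two criteria met; inactive = mean below 50 and not all replicates reaching 50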;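 note: 0% = plate neutral controls and 100% = maraviroc near 300 nM; one replicate is shown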
UUG fidelity – modulators of yeast start codon fidelity, primary screen, whole organism, S. cerevisiae, single point, plate reader | S. cerevisiae UUG-firefly luciferase reporter, luminescence/redox ratio | activity score, % at 18.7 µM | 350,000 tested, 0.13% active | AID 602363, 2012;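 active = replicate mean at a twofold rise or more, about +100% in these data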;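 note: firefly luciferase made from a UUG start codon reports start codon fidelity; reporter light over untreated wells divided by growth signal over untreated wells; some hits fall short of that in this replicate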
MT1-MMP act inh – blockers of MT1-MMP proenzyme processing, primary screen, HT1080 RFP-PRO-GFP cells, GFP/RFP fluorescence; Matrix metalloproteinase-14 (Homo sapiens), P50281; GFP/RFP ratio fluorescence, overnight; percent of plate control window, DMSO zero; GFP/RFP ratio change, % at 20 µM; 360,000 tested, 0.061% active; AID 651647, 2012;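 active = GFP/RFP ratio change of at least 30% with cell ATP level not reduced by more than half and red fluorescence within 50% of control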; note: strong numbers were not always called active
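Assay system: RFP-PRO-GFP reporter HT1080 cells; read-out basis: GFP/RFP fluorescence ratio; benchmarks: DMSO wells and RFP-L50D-GFP cells; doses: 20 µM single dose, 1% DMSO; schedule: overnight cell settling, then overnight compound exposure, 37 °C, 5% CO2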
Rce1 inhib – yeast Rce1p protease inhibitors, primary screen, biochemical, fluorescence, cell-free homogeneous; CAAX prenyl protease 2 (Saccharomyces cerevisiae (strain ATCC 204508 / S288c)), Q03530; yeast membranes, quenched prenylated peptide cleavage fluorescence; calls only; 290,000 tested, 0.27% active;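 active = fall in fluorescence gain of 50% or more versus controls, with final raw signal at or below 3038400; inconclusive = same 50% fall but final raw signal above 3038400; inactive = fall in fluorescence gain under 50%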;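 note: plate controls were neutral control wells for no effect and wells lacking membranes for full effect; tested at 10 µM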
PABP polyA inh – PABP poly(A) RNA binding inhibitors, primary screen, biochemical, fluorescence polarization, uHTS | inhibition, % at 35 µM | Polyadenylate-binding protein 1 (Homo sapiens), P11940 | 290,000 tested, 1% active;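 active = 50% or more with normal probe brightness, or confirmed in later tests; inconclusive = above 50% with abnormal brightness, or retests that disagree; inactive = below 50% or failed in later tests; about a fifth of its hits are not listed in these tables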;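 note: calls also rest on retests at 20 µM and on dose response follow-up; controls were probe without protein and protein plus probe with vehicle; some compounds called inactive have numbers as strong as hits; many hits fall short of the cut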
Target sequence (P11940 whole entry, looked up): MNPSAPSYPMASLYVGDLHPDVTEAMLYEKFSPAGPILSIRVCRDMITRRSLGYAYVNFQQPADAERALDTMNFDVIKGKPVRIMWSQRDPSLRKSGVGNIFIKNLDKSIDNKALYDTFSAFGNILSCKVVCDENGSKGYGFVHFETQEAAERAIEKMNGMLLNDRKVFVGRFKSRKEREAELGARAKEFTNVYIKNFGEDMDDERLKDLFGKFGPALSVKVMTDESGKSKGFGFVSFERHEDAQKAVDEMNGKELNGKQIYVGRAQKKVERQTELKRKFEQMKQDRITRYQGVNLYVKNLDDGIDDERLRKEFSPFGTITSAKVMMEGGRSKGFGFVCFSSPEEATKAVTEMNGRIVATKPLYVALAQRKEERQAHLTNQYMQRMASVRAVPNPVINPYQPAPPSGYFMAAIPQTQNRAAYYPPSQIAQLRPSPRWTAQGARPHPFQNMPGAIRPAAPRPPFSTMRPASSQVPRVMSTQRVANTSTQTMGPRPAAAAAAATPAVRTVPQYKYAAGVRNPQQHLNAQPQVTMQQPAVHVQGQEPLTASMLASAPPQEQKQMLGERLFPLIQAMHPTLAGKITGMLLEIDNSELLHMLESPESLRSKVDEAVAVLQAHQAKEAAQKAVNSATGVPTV
eIF4H FP inh retest – second read-out of eIF4H FP inh, no call of its own (marks repeat the call); inhibition, %; compound at 20 µM; confirmation average;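 mean of two retest wells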
PABP polyA inh retest – recorded beside PABP polyA inh, whose call it bears; inhibition, %; compound at 20 µM; confirmation repeats;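 mean of two retest wells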
MT1-MMP act inh RFP – recorded beside MT1-MMP act inh, whose call it bears; RFP signal change, %; measured here: RFP expression control read;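 0 = vehicle wells; hits needed this value within 50% of zero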
Starred values were filed as active, the others as inactive; i = inactive; ? = inconclusive; · = no result given; + = active, no number.

SMILES	CSC inhib	eIF4H FP inh	Env fusion inh	UUG fidelity	MT1-MMP act inh	MT1-MMP act inh RFP	Rce1 inhib	PABP polyA inh	others
CC1=C(C#N)C(Nc2ccc(C)cn2)(C(F)(F)F)C(=O)N1 (configuration not stated)	7	7	-13	-4	-1	6	i	13
CCCCS(=O)(=O)NC(=O)C1(C)CCN1C(=O)C/C=C/c1ccccc1 (configuration not stated)	·	·	-11	-2	-1	0	·	·
C/C(CC1CC(COCC(C)C)OC1=O)=N\Nc1nc(-c2ccccc2)cs1 (configuration not stated)	-1	-14	-6	-12	1	2	i	-6
CCN(CC)S(=O)(=O)c1ccc(Cl)c(NC(=O)COC(=O)/C=C/c2ccc(O)c(OC)c2)c1	-2	2	5	4	7	4	i	0
Cc1nc2sccn2c(=O)c1S(=O)(=O)Nc1ccc(N2CCN(C(=O)C(C)C)CC2)cc1	·	7	12	-1	2	3	i	3
COc1cccc(NC(=O)Cc2c(C(=O)O)[nH]c3ccccc23)c1	-12	-7	·	-3	0	-1	i	6
c1coc(Cn2nnnc2CN2CCN(C3CCCC3)CC2)c1	21	-3	-27	-14	-1	-2	i	16
CC(=O)c1cccc(NC(=O)Nc2c(C)nn(C)c2C)c1	-12	-5	8	-15	-1	2	i	1
CN1OC[C@@H]2CN(C(=O)Nc3ccccc3)[C@H](c3ccc(N4CCCCC4)cc3)C[C@@H]21	·	·	-10	1	2	3	·	·
Cc1cc(C)n2nc(SCC(=O)Nc3c(C)nn(-c4ccccc4)c3C)nc2n1	-5	-1	-85	-13	-4	-4	i	-3
COc1ccccc1-c1cnc(C(O)c2ccc(F)c(C)c2)[nH]1 (configuration not stated)	·	·	16	-20	9	-6	·	·
CCCCN=C1NN=C(c2ccc3c(c2)OCCO3)CS1	-12	-4	-20	·	-1	0	i	?
COc1ccc(CC(=O)Nc2nnc(SCc3ccccc3)s2)cc1S(=O)(=O)N1CCOCC1	-5	-3	·	-13	-3	-22	i	-3
COc1ccc(-n2ncc3c(=O)n(CC(=O)OCc4ccccc4)cnc32)cc1	-6	8	17	-10	1	1	i	-4
Cc1ccc(C(=O)Nc2nc(-c3ccc(F)cc3)cs2)o1	14	-2	-6	-9	3	-2	i	10
CCc1ccc(OCC(=O)O/N=C(\N)c2ccncc2)cc1	5	-1	-7	-17	5	-8	i	-2
COc1cc(NC(=O)CN2CCN(c3ccccc3)CC2)c(C)cc1[N+](=O)[O-]	4	-3	1	·	4	4	i	-7
Cc1cc(-c2c(C(=O)N3CCOCC3)c(C)nn2-c2cccc(C(F)(F)F)c2)no1	-7	-2	23	·	2	6	i	-9
CCC1(C)CC(=O)N(c2ccc(C(=O)O)c(O)c2)C1=O (configuration not stated)	-8	-2	·	-10	-5	0	i	11
COc1ccc(/C=N/NC(=O)c2cccc(Br)c2)cc1COc1ccccn1	23	6	-15	-4	1	0	i	-4
COc1ccc(NC(=O)C2CC(=O)N=C(N)S2)cc1 (configuration not stated)	10	-13	-32	-16	2	2	i	-8
COc1ccc(-n2c(=S)[nH]c3cc(C(=O)Nc4cc(OC)c(OC)c(OC)c4)ccc3c2=O)c(OC)c1	-14	-1	-4	-14	3	-7	i	-7
O=C(CNC(=O)c1cccs1)OCc1c(F)cccc1Cl	-1	-9	-16	-12	3	4	i	-3
CCOC(=O)C1(Cc2ccc(Cl)cc2)CCN(Cc2ccon2)CC1	-7	3	-12	·	-11	-4	i	7
COc1ccc(-c2oc3ccc(N4CCOCC4)cc3c2/C=C/c2ccc(OC)c(OC)c2)cc1	38	-7	39	-4	0	-3	+	-7

Structural class, the entries above containing an aryl thioether with sulfur outside any ring
SMILES	CSC inhib	eIF4H FP inh	Env fusion inh	UUG fidelity	MT1-MMP act inh	MT1-MMP act inh RFP	Rce1 inhib	PABP polyA inh	others
Cc1cc(C)n2nc(SCC(=O)Nc3c(C)nn(-c4ccccc4)c3C)nc2n1	-5	-1	-85	-13	-4	-4	i	-3
COc1ccc(CC(=O)Nc2nnc(SCc3ccccc3)s2)cc1S(=O)(=O)N1CCOCC1	-5	-3	·	-13	-3	-22	i	-3

Further entries.
SMILES	CSC inhib	eIF4H FP inh	Env fusion inh	UUG fidelity	MT1-MMP act inh	MT1-MMP act inh RFP	Rce1 inhib	PABP polyA inh	others
Cc1cc2cc(C)c(NCCNC(=O)c3cccs3)nc2cc1C	·	-15	-7	·	-4	-6	i	-14
O=C(CSc1nncs1)NC1CCCc2ccccc21 (configuration not stated)	-10	-4	-7	·	-2	-2	i	20
O=C(NCCc1ccc(Cl)cc1)c1ccc(NC2=NC3CS(=O)(=O)CC3S2)cc1 (configuration not stated)	·	6	-10	-16	0	1	i	6
Cc1cc(/C=C2\C(=N)N3N=C(C(C)C)SC3=NC2=O)c(C)n1Cc1ccccc1	18	16	4	-23	2	5	i	16
NS(=O)(=O)c1ccc(NC(=O)COC(=O)CCc2c[nH]c3ccccc23)cc1	-2	0	-17	·	3	3	i	-6
NC(=S)N/N=C/c1ncc(C(F)(F)F)cc1Cl	91*	?	·	20	5	1	i	?
Cc1ccc(S(=O)(=O)N2CCCCC2)cc1	-14	-8	17	-17	4	3	i	-5
OC(c1ccccc1)c1nc2ccccc2s1 (configuration not stated)	-16	-7	·	-6	2	3	i	4
O=C(O)CCNS(=O)(=O)c1ccc2ccccc2c1	4	-13	-42	-1	8	5	i	-2
COc1ccc(S(=O)(=O)N(C)CC(=O)Nc2cccc(C(C)=O)c2)cc1	-3	-1	·	-10	-1	-7	i	5
O=C1CNC(=S)N1CCCn1ccnc1	-8	-3	?	-23	2	6	i	-12
COc1ccc(CCC(=O)Nc2c(C)n(C)n(-c3ccccc3)c2=O)cc1	-8	-9	5	·	-2	0	i	2
CN(C)/C(CN1CCN(C=O)CC1)=C1\N=C(c2ccccc2)OC1=O	6	1	22	-6	-6	-9	i	2
COCCn1c(SCC(=O)Nc2cc(Cl)ccc2OC)nc2c(c1=O)SC(C)C2 (configuration not stated)	3	-4	·	-2	1	-15	i	17
COc1cc(Br)c(C2C(C#N)=C(N)Oc3n[nH]c(-c4cccnc4)c32)cc1OC (configuration not stated)	-9	-1	-3	·	1	4	i	25
O=c1[nH]c(C2CCN(S(=O)(=O)c3ccc4c(c3)OCCO4)CC2)nc2c1nnn2Cc1ccc(F)cc1	-14	2	22	-1	0	-6	i	-3
CC(C)NC(=S)NC(=O)/C=C/c1ccc(F)cc1	0	0	-67	-22	-9	-7	i	-12
CCCCN(CC)CCNC(=O)c1cn(C)c(=O)c2c1c1ccccc1n2C	-6	-4	-10	-3	-1	0	i	2
CCc1ccc(-c2nc(CS(=O)CC(=O)O)c(C)o2)cc1 (configuration not stated)	-1	1	-10	-3	-1	1	i	-3
N#CCC(=O)Nc1ccc(C(=O)OCC(=O)Nc2sc3c(c2C#N)CCCC3)cc1	·	·	-12	-7	0	2	·	·
Cc1ccc(S(=O)(=O)Nc2cccnc2Oc2ccc(Cl)cc2)cc1	3	-6	13	·	2	-9	i	2
O=C(CCCNC(=O)c1ccc(Cl)cc1)NCc1ccccc1F	-7	-7	2	-16	-1	-1	i	-4
Cc1cccc(NC(=O)c2cc(NC(=O)c3ccco3)ccc2Cl)n1	-16	-1	·	-6	-5	-7	·	2
O=C1NC(Cc2ccccc2)c2nc3ccc(F)cc3c(=O)n2-c2cc3ccccc3cc21 (configuration not stated)	·	·	-95	-30	-8	-15	·	·
CC12CN3CCN(CC(C3)C1(O)CN1CCOCC1)C2 (configuration not stated)	-11	3	·	-20	-21	-7	i	-1

(next part)
SMILES	CSC inhib	eIF4H FP inh	Env fusion inh	UUG fidelity	MT1-MMP act inh	MT1-MMP act inh RFP	Rce1 inhib	PABP polyA inh	others
CCOC(=O)C1=C(C)Nc2ccccc2N=C1NC(=O)Cc1ccc(Br)cc1	-5	76	-7	·	0	-2	i	0	eIF4H FP inh retest=31;PABP polyA inh retest=11
CC1=NN(c2ccc(N)cc2)C(=O)C1	-1	7	-4	-15	1	4	i	56*	eIF4H FP inh retest=35;PABP polyA inh retest=50*
Cc1cccc[n+]1CC(=O)/C=C1\N(C)c2ccccc2C1(C)C	31	19	?	-14	41*	11*	i	-2
Cc1nnc(NC(=O)CSc2nnc(Cc3ccccc3)n2-c2ccccc2)s1	-5	-5	·	-17	-2	1	i	-11
CC[C@]12c3[nH]c4ccc(Cl)cc4c3CCN1C(=O)[C@@H](CC(=O)NCCN1CCOCC1)C[C@@H]2C(=O)N1CCN(C(=O)C2CC2)CC1	·	·	2	-10	2	4	·	·
CC1(C)CC[C@]2(C(=O)O[C@@H]3OC(CO)[C@@H](O)[C@H](O)[C@H]3O)CC[C@]3(C)C(=CCC4[C@@]5(C)CC[C@H](O[C@@H]6OC(C(=O)O)[C@@H](O)[C@H](O)[C@H]6O)C(C)(C)C5CC[C@]43C)[C@@H]2C1 (some centres not stated)	28	·	-50	-11	0	2	·	·
Cc1nc(COC(=O)c2c(C)nn(-c3ccccc3)c2C)cs1	7	-7	-31	-8	-1	-6	i	-4
CCCCOc1ccc(C(=O)NCC(=O)NC2CCN(Cc3ccccc3)CC2)cc1	4	-3	6	-13	0	-6	i	4
S=c1[nH]nc(C2CC2)n1Cc1ccccc1	13	0	-5	·	0	3	i	3
COC(=O)Nc1ccc2c(c1)N(C(=O)CCCl)c1ccccc1S2	8	1	·	-6	1	-6	i	4
CCSc1nnc(NC(=O)CN2C(=O)C3CC=CCC3C2=O)s1 (configuration not stated)	3	-6	-8	·	0	4	i	-8
CC(C)[C@H](NC(=O)c1cc2cc(Cl)ccc2n1C)C(=O)N1CCC(C(=O)O)CC1	-12	10	-6	-6	-1	-2	i	-6
Cc1ccc(S(=O)(=O)N2CCOCC2)cc1NC(=O)CSc1nnc(NC2CC2)s1	3	·	-6	-14	-3	2	·	·
COc1ccc(C(=O)Nc2cc3c(cc2N2CCCCC2)n(C)c(=O)n3C)cc1OC	-2	73	-7	7	-4	1	i	2	eIF4H FP inh retest=-5;PABP polyA inh retest=-1
Cc1ccc2oc(=O)c3cc(C(=O)NCCN4CCN(C)CC4)sc3c2c1	31	-2	-27	5	3	5	i	2
COc1ccc(NC(=O)CSc2nc(C)cs2)c([N+](=O)[O-])c1	-13	·	·	-8	1	-3	·	·
CCCCN(CC)CCCNC(=S)Nc1ccc2nc3n(c(=O)c2c1)CCCCC3	-6	-6	-31	·	-1	-5	i	-17
CCn1ncc(Br)c1C(=O)Nc1ccc(Cl)cn1	-6	-6	-139	-14	-4	1	i	4
O=C(O)C1=NN(c2ccccc2)C(=O)C1	-15	17	4	·	-2	3	i	2
CC1(C)Cc2c(sc3nc(C4CC4)n(N)c(=O)c23)CO1	-15	2	0	·	0	-2	i	1
COC(=O)c1ccccc1-c1ccc(/C=N/NC(=O)c2cc3ccccc3o2)o1	·	0	·	-8	1	5	i	-4
N=c1c(S(=O)(=O)c2ccc(Cl)cc2)cc2c(=O)n3ccccc3nc2n1Cc1cccnc1	13	12	·	-16	-54	-1	i	19
